KCNQ2 inh – KCNQ2 potassium channel inhibitors, primary screen, cell-based, CHO-K1, FluxOR thallium flux, B-score (AID 2156) | Potassium voltage-gated channel subfamily KQT member 2 (Rattus norvegicus), O88943 | 20 min; active compounds read low; only compounds with negative scores are shown here; some inactives read as strong as hits | B-score at 10 µM | actives 1.1% (n = 310,000);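 active = fluorescence ratio B-score at most minus 3 library SDs, with starting brightness B-score within 2 library SDs, cut at about -5.5 in these data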
Target sequence (O88943 whole entry, looked up): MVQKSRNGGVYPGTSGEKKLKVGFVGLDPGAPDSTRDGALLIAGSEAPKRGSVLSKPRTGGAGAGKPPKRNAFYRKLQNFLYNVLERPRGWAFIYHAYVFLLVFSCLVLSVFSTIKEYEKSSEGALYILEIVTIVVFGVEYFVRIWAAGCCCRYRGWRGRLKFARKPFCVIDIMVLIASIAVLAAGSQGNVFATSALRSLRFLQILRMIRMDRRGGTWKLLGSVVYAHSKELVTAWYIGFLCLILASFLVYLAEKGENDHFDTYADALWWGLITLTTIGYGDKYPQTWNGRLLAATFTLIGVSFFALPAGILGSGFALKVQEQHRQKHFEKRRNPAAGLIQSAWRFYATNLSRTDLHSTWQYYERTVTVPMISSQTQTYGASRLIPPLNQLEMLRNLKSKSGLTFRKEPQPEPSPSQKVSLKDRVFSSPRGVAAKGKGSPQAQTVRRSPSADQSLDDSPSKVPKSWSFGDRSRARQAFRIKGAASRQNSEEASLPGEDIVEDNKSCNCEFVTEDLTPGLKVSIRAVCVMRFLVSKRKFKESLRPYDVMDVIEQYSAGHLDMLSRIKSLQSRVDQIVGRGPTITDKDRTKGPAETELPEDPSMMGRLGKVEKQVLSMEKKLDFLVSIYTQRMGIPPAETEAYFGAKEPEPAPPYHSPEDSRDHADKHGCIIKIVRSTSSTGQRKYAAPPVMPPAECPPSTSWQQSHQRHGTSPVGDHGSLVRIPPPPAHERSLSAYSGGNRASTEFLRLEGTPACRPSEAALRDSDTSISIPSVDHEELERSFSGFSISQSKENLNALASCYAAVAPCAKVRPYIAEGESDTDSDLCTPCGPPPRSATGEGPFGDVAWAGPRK
KCNQ2 inh baseline – recorded beside KCNQ2 inh, whose call it bears; B-score; measured here: initial fluorescence intensity artifact check;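 brightness before thallium and not channel activity; 0 = typical well and far values either way flag optical interference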
Numbers without * were called inactive; i = inactive.

Every second line gives: KCNQ2 inh	KCNQ2 inh baseline
- CC(SC1CCCC1)C(=O)Nc1ccnn1C(C)C (configuration not stated)
→ i	1.79
- COc1ccc(S(=O)(=O)N2c3ccccc3NC(=O)CC2C)cc1 (configuration not stated)
→ i	-1.57
- COc1ccc(N(C(=O)c2ccco2)S(=O)(=O)c2ccc(F)cc2)cc1
→ i	-0.76
- CN(C(=S)NC1=CCS(=O)(=O)C1)C1CCCCC1
→ i	-0.15
- Cc1c(Cc2ccccc2)c(=O)oc2c(O)c(O)ccc12
→ i	0.39
- O=C(/C=C/c1ccc(Br)cc1)c1ccc(NC2=NCCCS2)cc1
→ i	0.04
- CCN(CC)C(=O)COCc1cc(-c2ccc3c(c2)OCO3)on1
→ i	0.53
- CCOC(=O)c1c(N)c2cc([N+](=O)[O-])cnc2n1C
→ i	0.23
- CCCC[N+](CC#CCO)(CC#Cc1ccccc1)CCCC
→ i	-1.29
- CSc1nc(O)c(C(c2ccc(OC(C)C)cc2)c2c(O)nc(SC)[nH]c2=O)c(=O)[nH]1
→ i	2.16
- C=C(C)CN(CC)c1nc(N)c(C#N)c(CC#N)c1C#N
→ i	0.17
- O=C(c1ccc2c(=O)n3c(nc2c1)CCCCC3)N1CCc2ccccc21
→ i	2.03
- Cc1cccc(S(=O)(=O)N2CN(Cc3ccco3)c3nc4ccccc4nc32)c1
→ i	1.33
- Fc1cccc(F)c1-n1c(CN2CCCC2)csc1=S
→ i	0.85
- CC(C)N(C(=O)COC(=O)c1ccc(O)cc1)C(C)C
→ i	0.11
- Cc1ccccc1OCC(=O)Nc1nnc(C2CCCC2)s1
→ i	-0.46
- COc1ccc(OC)c(S(=O)(=O)Nc2cc(Cl)cc(Cl)c2)c1
→ i	1.07
- Cc1ccc(CCNC(=O)c2cc(-c3ccncc3)nc3ccccc23)cc1
→ i	0.28
- CCCN(CC(=O)Nc1ccc(Cl)cc1Cl)Cc1cc(=O)n2ccsc2n1
→ i	-0.5
- COc1ccc(NC(=O)CSCC(=O)NC2(C)CCS(=O)(=O)C2)cc1 (configuration not stated)
→ i	1.15
- CC(=O)Nc1ccc(S(=O)(=O)NC(C)C(=O)NCCc2ccc(F)cc2)cc1 (configuration not stated)
→ i	-0.99
- O=C(CN1C(=O)NC2(CCOc3ccccc32)C1=O)Nc1ccc(F)c(F)c1F (configuration not stated)
→ i	1.03
- COc1ccc2[nH]cc(CCNC(=O)CS(=O)(=O)Cc3ccccc3)c2c1
→ i	-1.09
- Cc1ccc(OCc2nc(C#N)c(N3CCN(Cc4ccccc4)CC3)o2)cc1
→ -7.85*	-1.39*
- COc1ccc(S(=O)(=O)c2c(O)c3ccc(C(=O)Nc4ccccc4Cl)cc3[nH]c2=O)cc1
→ i	-0.27
- CC(C)(C)c1ccc(CCC2OCC(CN3CCOCC3)O2)cc1 (configuration not stated)
→ i	-0.23
- COc1ccccc1N1CCN(C(=O)c2ccccc2N(C)S(=O)(=O)c2ccc(C)cc2)CC1
→ i	2.18
- NC(=O)c1c(NC(=O)c2cc3ccccc3o2)sc2c1CCC2
→ i	-0.61
- O=C(CC(CC(=O)c1ccc(Cl)cc1)c1ccccc1C(=O)O)c1ccc(Cl)cc1
→ i	-0.39
- Cc1ccccc1NC(=O)c1cccc(OCc2c(C)noc2C)c1
→ i	-0.15

Whole records, looked up by structure. Screens in order: KCNQ2 inh | KCNQ2 inh baseline
CSc1nc(O)c(C(c2ccc(OC(C)C)cc2)c2c(O)nc(SC)[nH]c2=O)c(=O)[nH]1 is listed as i | 2.16
O=C(CN1C(=O)NC2(CCOc3ccccc32)C1=O)Nc1ccc(F)c(F)c1F (configuration not stated) is listed as i | 1.03
O=C(c1ccc2c(=O)n3c(nc2c1)CCCCC3)N1CCc2ccccc21 is listed as i | 2.03
CC(=O)Nc1ccc(S(=O)(=O)NC(C)C(=O)NCCc2ccc(F)cc2)cc1 (configuration not stated) is listed as i | -0.99

(continued)
Every second line gives: KCNQ2 inh	KCNQ2 inh baseline
- CCOc1c(Br)cc(CNc2ccc(N3CCN(C(C)=O)CC3)cc2)cc1OC
→ i	-1.14
- C=CCNCCCCOc1ccc(Br)cc1C
→ i	1.18
- CCCOC(=O)CCCN1C(=O)/C(=C2\SC(=S)N(CCCC(=O)OCCC)C2=O)SC1=S
→ i	0.56
- Cc1cc(N/N=C/c2ccccc2Cl)nc(NCc2ccccc2)n1
→ -6.37*	0.51*
- COc1cc(NC(=O)Cc2ccc(S(=O)(=O)N3CCOCC3)s2)c(OC)cc1Cl
→ i	-0.01
- Cc1nn(CC(=O)c2ccc(Br)s2)c(C)c1[N+](=O)[O-]
→ i	1.11
- COc1cccc(C(=O)NCc2nnc(SCC(=O)Nc3nccs3)n2-c2ccccc2)c1
→ i	-0.18
- COc1ccc(C(=O)COC(=O)Cc2c[nH]c3ccccc23)c(OC)c1
→ i	-0.24
- C#CCN1CC(C)/C(=N/O)CC1C (configuration not stated)
→ i	0.55
- Cc1nnc(SCC(=O)NCc2ccccc2Cl)[nH]c1=O
→ i	2.58
- CN(c1ccccc1)S(=O)(=O)c1cccc(NC(=O)c2cncc(Br)c2)c1
→ i	-1.79
- CCn1c(Cc2ccccc2)nnc1SCC(=O)Nc1ccc(OC)cc1
→ i	0.48
- COc1ccc(OCC(=O)NC2CCCN(Cc3ccc(Cl)cc3)C2)cc1 (configuration not stated)
→ i	1.38
- CC(C)(C)OC(=O)N/N=C\c1ccc(OC(=O)c2ccco2)cc1
→ i	0.09
- CC(=O)Nc1ccc(-c2nc3ccccc3c(=O)o2)cc1
→ i	0.4
- O=C(NC(=S)Nc1cccc(Cl)c1Cl)C1CC1
→ i	2.6
- COc1cc(OC)cc(C(=O)N(Cc2nc(-c3cccc(C)c3)no2)C(C)C)c1
→ i	0.95
- COc1ccc(N2C=C3C(=O)C(C)(OC(=O)CCc4ccccc4)C(=O)C=C3C=C2c2ccc(C#N)cc2)cc1 (configuration not stated)
→ i	-0.37
- O=[N+]([O-])c1ccc(N2CCNCC2)c(S(=O)(=O)N2CCOCC2)c1
→ i	-0.2
- Brc1ccccc1-c1nnc(COc2cccc3cccnc23)o1
→ i	-0.73
- Cc1cccc2cc(C3CC(c4ccco4)=NN3C(=O)CCC(=O)O)c(Cl)nc12 (configuration not stated)
→ i	-0.02
- CC[C@@H](C)[C@@H](C(=O)N1CCNCC1)n1cc(CCC(=O)O)nn1
→ i	1.02
- COc1ccc(N/C(=C2\CCCC2=O)C2CCCCC2)cc1
→ i	-2.12
- CC(=O)Nc1ccc(NS(=O)(=O)c2c(Cl)cccc2Cl)cc1
→ i	-0.1
- O=C(N1CCCCC1)N1CCN(c2ccc(Cl)cc2)CC1
→ i	0.92
- O=C(NCc1ccccc1)C1=C[C@@H](c2ccc(C(F)(F)F)cc2)C[C@@H](OCc2ccc(CO)cc2)O1
→ -7.51*	-0.71*
- O=C1/C(=C/c2ccc(N3CCCC3)cc2)NC(=S)N1C1CC1
→ i	3.43
- COc1ccccc1NC(=O)CSc1nnc(C2CCCCC2)n1-c1ccccc1
→ i	-0.04
- CC(C)(CNC(=O)Cc1ccc(NS(=O)(=O)c2cccc(C(F)(F)F)c2)cc1)N1CCOCC1
→ i	-0.4
- COCCN(C(=O)CCC(=O)Nc1cc(C)on1)C(C(=O)NC1CCCC1)c1ccccc1F (configuration not stated)
→ i	1.27

More records follow:
SMILES | KCNQ2 inh | KCNQ2 inh baseline
Cc1cc(OCc2cc(C(=O)N(C)Cc3ccccn3)no2)cc(C)c1Cl | i | -0.92
CC(=O)O[C@H](CC(=O)O)C[N+](C)(C)C | i | 0.03
CCC(C)(C)n1nnnc1C(c1ccc2ncccc2c1)N1CCN2CCCC2C1 (configuration not stated) | i | 2.19
Cc1ccc(C)c(N2CCN(C(=O)c3cc(S(=O)(=O)N4CCCC4)cn3C)CC2)c1 | i | 0.41
COc1cc2c(cc1NC(=O)CSc1ccccn1)oc1ccccc12 | i | 0.02
CCN1CCN(S(=O)(=O)c2ccc(Cl)c(C(=O)N(C)Cc3ccc(Cl)cc3Cl)c2)CC1 | i | -0.34
COc1ccc(C2C(C#N)=C(N)Oc3cc(N)ccc32)cc1 (configuration not stated) | i | -1.04
COc1ccc(CCNC(=O)CN2CCN(S(=O)(=O)c3ccc(Cl)cc3)CC2)cc1OC | i | 0.17
COC(=O)C1=C(C)N(C)C(=S)N(C)C1c1cccc(Br)c1 (configuration not stated) | i | 1.15
COc1ccc(NC(=O)c2csc3c2CCCCC3)c(OC)c1 | i | -1.39
N#Cc1cc2ccccc2n2nnnc12 | i | 0.02
CCOc1cccc(CN2CCN(c3cccc(C(F)(F)F)c3)CC2)c1O | i | 0.63
COc1ccc(CNc2oc(Cc3cccc4ccccc34)nc2C#N)cc1 | i | 0.79
COc1ccc(-n2nnnc2-c2ccc(S(C)(=O)=O)cc2Cl)cc1 | i | -0.31
O=C(NCCN1CCCCC1)c1cc(COc2c(F)cccc2F)on1 | i | 2.35
O=C(c1ccco1)N1CCN(C(c2cccs2)c2nnnn2C2CCCC2)CC1 (configuration not stated) | i | 0.49

Some of these compounds in order of count of non-hydrogen atoms, low to high.
SMILES | KCNQ2 inh | KCNQ2 inh baseline
N#Cc1cc2ccccc2n2nnnc12 | i | 0.02
COC(=O)C1=C(C)N(C)C(=S)N(C)C1c1cccc(Br)c1 (configuration not stated) | i | 1.15
COc1ccc(CNc2oc(Cc3cccc4ccccc34)nc2C#N)cc1 | i | 0.79
O=C(c1ccco1)N1CCN(C(c2cccs2)c2nnnn2C2CCCC2)CC1 (configuration not stated) | i | 0.49

(continued)
SMILES | KCNQ2 inh | KCNQ2 inh baseline
O=C(NCC1CCCCC1)c1ccc([N+](=O)[O-])cc1 | i | -1.53
Cc1csc2c(N3CCC(C(=O)O)CC3)ncnc12 | i | 1.95
Cc1ccc(S(=O)(=O)c2nc(-c3ccccc3)oc2NCc2cccnc2)cc1 | i | -1.23
CCOC(=O)c1csc(NC(=O)C2CCCCC2)n1 | i | 0.93
O=C(NC(=O)c1ccc(F)cc1F)Nc1ccc(Cl)cc1 | i | 0.64
CCc1ccc(N2CN(Cc3ccco3)CNC2=S)cc1 | i | 0.04
Cc1oc(C(=O)O)cc1COc1ccc2c(C)cc(=O)oc2c1 | i | -0.31
O=[N+]([O-])c1ccc(CSc2nnc3ccccn23)cc1 | i | 0.29
CCOC(=O)c1nnn(CC(=O)N2N=C(c3cc(C)ccc3C)CC2c2ccc(OC)cc2)c1C(=O)OCC (configuration not stated) | -5.77* | 2.65*
O=C(O)CSCC(=O)Nc1cccc2ccccc12 | i | 3.45
Cc1cc(C(F)(F)F)c2c(N)c(C(=O)Nc3cc(C)on3)sc2n1 | i | 1.01
COc1cccc2cc(C(C)N(CCCN3CCOCC3)C(=S)Nc3ccccc3C)oc12 (configuration not stated) | i | 2.91
COc1ccc(S(=O)(=O)N2CCN(CC3CC=CCC3)CC2)cc1 (configuration not stated) | i | 0.01
CCN(CC)S(=O)(=O)c1cccc(-c2nnc(SCc3nnc(-c4cccs4)o3)n2N)c1 | i | 0.64
CC1CCCC(NC(=O)CCS(=O)(=O)c2cc3c(cc2Cl)NC(=O)CO3)C1C (configuration not stated) | i | 0.25
Cc1cc(S(=O)(=O)N(Cc2ccccc2Cl)c2ccc3c(c2)CCC3)ccc1-n1cnnn1 | i | -0.14
Cn1c(SCC(=O)NCc2ccccc2)nnc1-c1ccc(NC(=O)CCc2ccccc2)cc1 | i | 2.03
Cn1c(=S)[nH]c2ccccc21 | i | -0.03
O=C(NCc1ccco1)c1ccc(-c2ccccc2Cl)o1 | -7.11* | -0.15*
Cc1ccc(OCC(=O)Nc2ccc(CN3CCOCC3)cc2)cc1C | i | 1.52
CCN(CC)S(=O)(=O)c1ccc(Cl)c(NC2=NCCCCC2)c1 | i | -0.9
COc1cccc(OC)c1C(=O)OCC(=O)NCCCc1ccccc1 | i | -0.16
O=C(NCCc1ccc(Cl)cc1)c1ccc2nc(N3CCOCC3)sc2c1 | i | 0.13
Cc1ccc(N(CCCCN2C(=O)c3ccccc3C2=O)C(=O)c2cccs2)cc1 | i | 1.78
O=c1c2ccccc2n2nnnc2n1-c1ccccc1 | i | 0.63
CCN(CC)C(=O)Oc1ccc(Br)cc1C(=O)Nc1ccc(F)c(Cl)c1 | i | 1.42
CC(C)(C)NC(=O)N1CCN(c2nc3ccc(Cl)cc3s2)CC1 | i | -0.61
CN(CP(=O)(O)C(O)c1ccccc1)S(C)(=O)=O (configuration not stated) | i | 0.66
CCOC(=O)N1CCN(C(=O)c2cn(CC(C)C)c(=O)c3c2c2ccccc2n3C)CC1 | i | -0.06
O=[N+]([O-])c1ccc(Cl)c(S(=O)(=O)Nc2ccc(-c3ccc(N4CCOCC4)nn3)cc2)c1 | i | -0.54
COc1cc(NC(=O)c2ccccn2)cc(OC)c1OC | i | 0.43
COCCN(CC1CCCN(C2Cc3ccccc3C2)C1)C(=O)CCC(N)=O (configuration not stated) | i | -0.38
COc1ccc(NC(=S)NNC(=O)c2cccs2)cc1 | i | -1.82
O=C(CN1CCC(C(=O)c2ccc(Cl)cc2)CC1)Nc1ccc2c(c1)OCCO2 | i | 0.12
O=C(NCc1ccccc1)C1=C[C@H](C2CC2)C[C@H](OCc2ccc(CO)cc2)O1 | i | -0.01
Cc1cc(C)cc(OCC(=O)Nc2ccc(N3CCCCC3)cc2)c1 | i | -0.43
OCC[C@@H]1C[C@H](O)[C@@H](O)[C@]2(OCCc3ccccc32)O1 | i | 1.82
O=C(COc1ccc(Cl)cc1)NCc1ccc(F)cc1 | i | 0.72
COCCn1c(C)c(C)c(S(=O)(=O)c2ccccc2)c1N | i | 0.75
COCCNC(=O)c1ccc(Cl)c(S(=O)(=O)Nc2cccc(C)c2C)c1 | i | -0.05
Cc1ccc2oc(C(=O)N3CCN(c4cccc(C)n4)CC3)c(C)c2c1 | -8.08* | 0.56*

Screening results (PubChem BioAssay)

A portion of the library. The share of hits here may be higher or lower than overall.
